D2 ag: human D2 receptor agonism in beta-arrestin assay. DiscoveRx PathHunter D2 beta-arrestin, luminescence, 90 min; 100% = 57 uM dopamine signal. activation, % (test concentration not listed). 0.084% of 360,000 active; in the data active = activation above about 40%; inconclusive = about 15% to 40%; inactive = below about 15%; also: compound concentration not given in the record; the text of the record calls up to 30% inactive
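DiscoveRx PathHunter D2 beta-arrestin cells (2,100/well) attached overnight, then compound-stimulated 90 min at 37 C in HBSS/10 mM HEPES/0.1% Tween-20 buffer; beta-galactosidase complementation read by luminescence after 1 h at ambient temperature. Dopamine 57 uM final (EC100) as control.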
Six1-Eya2 blk: inhibitors of human Six1/Eya2 interaction; Q15475+O00167; AlphaScreen GST-Six1/His-Eya2 binding, biochemical; hits give low values; control for the full effect not named in the record; activity change, % (concentration not given with the values); 0.56% of 360,000 active; AID 651725; in the data active = activity change below about -65%; inconclusive = about -30% to -65%; inactive = above about -30%; also: % is scaled to controls: 0 for no effect and ±100 for the full control effect
Target sequence (O00167 whole entry, looked up): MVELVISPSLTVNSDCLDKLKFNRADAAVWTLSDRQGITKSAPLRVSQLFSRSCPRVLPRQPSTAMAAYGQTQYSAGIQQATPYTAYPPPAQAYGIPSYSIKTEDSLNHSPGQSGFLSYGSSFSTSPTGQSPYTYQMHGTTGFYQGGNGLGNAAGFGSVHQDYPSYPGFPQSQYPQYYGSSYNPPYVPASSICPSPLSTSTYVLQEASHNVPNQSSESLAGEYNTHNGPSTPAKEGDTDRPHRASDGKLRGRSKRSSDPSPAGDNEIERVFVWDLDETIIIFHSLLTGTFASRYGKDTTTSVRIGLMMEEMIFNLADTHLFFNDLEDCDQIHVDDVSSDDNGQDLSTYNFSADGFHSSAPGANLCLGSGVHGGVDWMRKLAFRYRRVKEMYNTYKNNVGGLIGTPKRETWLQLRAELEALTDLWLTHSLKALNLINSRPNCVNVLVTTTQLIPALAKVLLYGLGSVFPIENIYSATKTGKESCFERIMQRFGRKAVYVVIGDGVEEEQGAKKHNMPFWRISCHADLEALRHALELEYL
Target sequence (Q15475 whole entry, looked up): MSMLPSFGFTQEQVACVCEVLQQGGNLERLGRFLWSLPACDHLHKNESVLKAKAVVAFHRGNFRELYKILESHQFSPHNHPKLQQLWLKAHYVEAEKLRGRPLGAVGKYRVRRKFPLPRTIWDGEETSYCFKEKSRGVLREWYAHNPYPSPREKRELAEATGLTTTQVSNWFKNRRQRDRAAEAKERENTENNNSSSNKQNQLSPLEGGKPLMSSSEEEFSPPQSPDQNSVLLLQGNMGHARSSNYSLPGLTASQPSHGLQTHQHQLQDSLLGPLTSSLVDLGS
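Six1/Eya2 binding was read as AlphaScreen signal after compounds were pinned into GST-Six1 plus His-tagged Eya2 (5X stock 250/500 nM) in pH 8.0 Tris/NaCl/TCEP buffer, beads added, then incubated 1 h, 37 C, dark.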
TRPML1 inh: inhibitors of human TRPML1 channel | TRPML1-inducible cells, Ca2+ dye fluorescence, FDSS; hits give low values; inhibition of EC80 agonist-evoked calcium signal | activity change, negative = inhibition, % (concentration not given with the values) | 0.02% of 390,000 active | AID 624415; in the data active means activity change below about -50%; inconclusive means about -30% to -50%; inactive means above about -30%;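 also: stimulus is agonist 54-4 at its EC80 concentration; % is scaled to controls: 0 for no effect and ±100 for the full control effect; compound concentration not given in the record; the text of the record puts the active cut at -80%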
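Calcium fluorescence in TRPML1-DL cells induced overnight with Tet: a 110 s read after compound pin addition, then a 110 s antagonist read after challenge with 54-4 at 4 uM final (EC80).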
TRPML1 agonist: human mucolipin-1 channel agonism; activation, % (no concentration beside the values); Q9GZU1; 0.12% of 410,000 active; AID 624414; TRPML1-expressing cells, Ca2+ dye fluorescence, FDSS; host cell line not named in the record; reference of the full effect not given here; in the data active = activation above about 50%; inconclusive = about 30% to 50%; inactive = below about 30%; also: 0% is about no effect; the text of the record puts the active cut at 80%
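TRPML1-DL cells, Tet-induced overnight (~16 h, 37 degrees C), loaded 45-90 min at room temperature with Ca8 no-wash calcium dye plus quencher. FDSS fluorescence: 10 s baseline, compound pin-transfer, 110 s agonist read, then EC80 54-4 (4uM final) and 110 s antagonist read.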
D2 potentiator: human D2 receptor positive allosteric modulation; potentiation, % (no concentration beside the values); P14416; DiscoveRx D2 beta-arrestin cells, luminescence, 90 min; 100% = 57 uM dopamine signal; 0.23% of 360,000 active; active = potentiation of 50% or more; inconclusive = 30% to 50%; inactive = 30% or less;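 also: compound concentration not given in the record; tested on top of an EC20 dose of dopamine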
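D2 cells co-treated with compound plus 50 nM dopamine (EC20) for 90 min at 37 deg C to detect potentiation. Beta-arrestin recruitment was read as enzyme-fragment luminescence after 1 h at ambient temperature. Full response was set by 57 uM dopamine.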
PINK1 modulator: changes PINK1 expression; PINK1 immunofluorescence, high-content cytometry, 24 h; Potency, µM (series often up to 76.6 µM), without a hit: at the top dose activation (PINK1 increase), actives largely listed as activators; 0.2% of 410,000 active; AID 624263; active = well fitted activation curve with a large enough effect; inconclusive = small, poorly fitted or top-dose-only effect; inactive = flat fitted curve, though single readings scatter; cell line not stated here;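 also: potency is read from the fitted curve at half-maximal effect; % of control where 0% means no effect; nearly all actives have a fitted effect of over 65% in size; a mitochondrial uncoupler was the plate control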
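Measures PINK1 amount and localization on or inside mitochondria by immunofluorescence. Stable cells get compounds at 5 concentrations for 24 hours before fixation and staining; CCCP controls included.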
* marks the source's active call; other numbers are inactive results; ? = inconclusive; . = no result given; & = joins results of further samples; [ ] = another dose, or the depositor's remark.

structure	D2 ag	Six1-Eya2 blk	TRPML1 inh	TRPML1 agonist	D2 potentiator	PINK1 modulator
C=C(C)CNC(=S)N/N=C(\C)c1cccc(NC(C)=O)c1	-3.1	-21	4	-0.3	-18	2.1%
Cc1[nH]c2ccccc2c1/C=N/NC(=O)c1cccs1	-2.2	-16	43	0.1	-16	-1.5%
COc1cccc(Oc2ccc(C(F)(F)F)cc2NC(=O)c2cccc(F)c2)c1	-4.1	24	34	3.5	-23	?
Cc1ccc(Cn2c(C(=O)O)c(CNCc3cccs3)c3ccc(C)cc32)cc1	.	.	15	0.3	.	3.4%
CC1=CC(=O)N(c2ccc(C)cc2)C1c1ccc(Cl)cc1 (configuration not stated)	-4.1	11	2	0.5	-22	2.7%
COc1ccc(N2CCN(C(=O)C(=O)c3cn(CC(=O)N4CCOCC4)c4ccccc34)CC2)cc1	-1.7	4	13	-0.8	-5	-0.4%
CCN(CCO)c1cc(Cl)nc(SC)n1	0.2	4	11	-1.0	6	0.6%
Cc1c(-c2ccccc2)nc(N)c(C#N)c1-c1cccnc1	-1.1	8	9	0.9	-14	-0.5%
CCOC(=O)C1CCN(Cc2ccc(Cl)c(Cl)c2)CC1	2.3	5	4	4.0	-16	0.0%[38.3 µM]
COc1ccc(C(=O)OC2CCCCC2CN(C)C)cc1 (configuration not stated)	-7.3	-6	51	-0.3	-4	2.4%
COc1ccc(OC)c(N2C(=O)CC(NNC(=O)c3ccc4c(c3)OCO4)C2=O)c1 (configuration not stated)	3.3	-7	-11	-0.1	-6	-0.4%
COc1ccc(-c2c(C)nn3c(N4CCN(Cc5ccccc5)CC4)cc(C)nc23)cc1OC	-5.3	5	6	-0.9	-1	0.4%
CN(CC(=O)NCc1ccc2c(c1)OCO2)S(=O)(=O)c1ccc(Cl)cc1	-1.3	4	-4	-0.9	-11	0.6%
Cc1ccccc1C(=O)Nc1cccc(NC(=S)NC(=O)c2cccs2)c1	-4.6	-7	3	-0.4	-32	3.9%
O=C(COC(=O)c1ccc(N2CCCC2=O)cc1)Nc1ccccc1	-1.5	1	0	1.5	-1	5.3%
CC(=O)Cc1nsc(NC(=O)c2ccc(-c3cc(C(F)(F)F)ccc3Cl)o2)n1	0.4	1	21	1.1	-9	5µM*
Cc1ccc(S(=O)(=O)N2CCOCC2)cc1C(=O)NCc1ccco1	0.5	3	-5	1.6	-1	0.9%[38.3 µM]
CC(=O)c1ccc(S(=O)(=O)Nc2ccc(N3CCOCC3)cc2)cc1	3.7	7	41	1.2	0	0.8%
O=C(NC1CCS(=O)(=O)C1)c1cccc(Br)c1 (configuration not stated)	-4.2	6	-20	0.7	-11	-0.9%
CCCCc1cc(=O)oc2cc(OCc3nn[nH]n3)ccc12	-1.5	-18	-5	-0.3	-8	-0.8%
CC(=O)c1cccc(S(=O)(=O)N(C)C2CCN(C)CC2)c1	-3.2	8	4	0.8	-1	2.6%
O=C(COCc1cc(-c2ccc3c(c2)OCO3)on1)N1CCN(c2cccc(Cl)c2)CC1	-3.9	-15	-17&-20	-0.4&1.4	-12	4.9%&0.9%
COC(=O)N/N=C/c1ccc(Oc2ccccc2)cc1	0.0	0	17	0.1	3	1.8%
COc1ccc(S(=O)(=O)N2CCCC2)cc1NC(=O)c1ccccc1	-5.4	12	33	1.1	-5	-2.9%
N#CC1=C(N)OC2=C(C(=O)CCC2)C1c1ccc(OC(=O)N2CCOCC2)cc1 (configuration not stated)	2.8	0	4	0.4	5	-6.2%[38.3 µM]
Cc1ccc(C)c(CNC(=O)Nc2ccccc2)c1	-0.8	8	24	0.8	-1	6.8%
COc1ccc(CCNc2ncnc3c2c(-c2ccccc2)cn3-c2ccc(Cl)cc2)cc1OC	.	.	-18	77*	.	1.8%
NC(=O)CC(NC(=O)c1ccc(Cl)cc1)C(=O)NCCc1ccc(S(N)(=O)=O)cc1 (configuration not stated)	9.8	4	2	1.0	-4	-1.3%
Cc1cc(C)cc(C(=O)NCCC(=O)N2CCC3(CC2)NCCc2[nH]cnc23)c1	1.8	16	1	-0.7	-10	-0.9%
Cc1cc(=O)c2cc(Br)ccc2n1CC(=O)NCc1ccccc1	0.3	-5	21	3.1	-4	-0.2%

Copied from the list.
Result of CCCCc1cc(=O)oc2cc(OCc3nn[nH]n3)ccc12 under TRPML1 agonist: -0.3
Result of COc1ccc(C(=O)OC2CCCCC2CN(C)C)cc1 (configuration not stated) under Six1-Eya2 blk: -6

Some of the entries so far, with two lines to a compound:
Fields – D2 ag | Six1-Eya2 blk | TRPML1 inh | TRPML1 agonist | D2 potentiator | PINK1 modulator
- Cc1ccccc1C(=O)Nc1cccc(NC(=S)NC(=O)c2cccs2)c1
  -4.6 | -7 | 3 | -0.4 | -32 | 3.9%
- O=C(COC(=O)c1ccc(N2CCCC2=O)cc1)Nc1ccccc1
  -1.5 | 1 | 0 | 1.5 | -1 | 5.3%
- CC(=O)Cc1nsc(NC(=O)c2ccc(-c3cc(C(F)(F)F)ccc3Cl)o2)n1
  0.4 | 1 | 21 | 1.1 | -9 | 5µM*
- Cc1ccc(S(=O)(=O)N2CCOCC2)cc1C(=O)NCc1ccco1
  0.5 | 3 | -5 | 1.6 | -1 | 0.9%[38.3 µM]

Back to the main list with the 2 entries that preceded the break.
structure	D2 ag	Six1-Eya2 blk	TRPML1 inh	TRPML1 agonist	D2 potentiator	PINK1 modulator
Cc1cc(C)cc(C(=O)NCCC(=O)N2CCC3(CC2)NCCc2[nH]cnc23)c1	1.8	16	1	-0.7	-10	-0.9%
Cc1cc(=O)c2cc(Br)ccc2n1CC(=O)NCc1ccccc1	0.3	-5	21	3.1	-4	-0.2%
COC(=O)C1=CN(c2cc(C)cc(C)c2)C=C(C(=O)OC)C1c1ccc(OC)c(O)c1	1.0	0	50	3.9	-2	-0.4%
Cc1ccccc1C(=O)N/N=C/c1ccc(OCC(=O)N2CCCCC2)cc1	0.2	1	15	0.4	-1	-1.8%[38.3 µM]
COCCN(C(=O)c1ccccc1F)c1c(N)n(Cc2ccccc2)c(=O)[nH]c1=O	-0.2	8	10	-0.2	-2	-2.8%
O=c1[nH]c2cc(Cl)c([N+](=O)[O-])nc2[nH]1	-5.3	20	13	-0.2	-23	-2.0%
NS(=O)(=O)c1cc(C(=O)OCC(=O)N2CCOCC2)ccc1Cl	-2.7	5	6	0.2	-6	-1.0%
O=C(CSc1n[nH]c(-c2ccc(Cl)cc2Cl)n1)Nc1ccccn1	-3.0	-16	-10	0.4	6	12%
CC1Oc2ccccc2N(CC(=O)Nc2ccc3c(c2)OCCO3)C1=O (configuration not stated)	-4.5	2	-12	1.5	-1	-2.8%[38.3 µM]
c1ccc(-n2nnnc2-n2cnc3ccccc32)cc1	-1.7	0	10	-0.4	5	.
C=CCn1c(-c2ccccn2)n[nH]c1=S	-5.8	-23	.	-0.9	-6	-0.5%
CCOC(=O)c1ccccc1NC(=O)C1CSC2(C)CCC(=O)N12 (configuration not stated)	-3.5	0	10	1.9	-14	-1.3%
CCCCCCN1C[C@H](n2cc(COC(=O)c3ccccc3)nn2)[C@@H](O)C[C@@H]1c1ccccc1	-0.9	7	-10	0.5	8	-0.6%
Fc1ccccc1CNC(=S)NCc1ccc(Cl)cc1	-2.2	-4	23	-0.3	-11	6.4%
COc1ccc(-c2nc(Cc3ccc(Cl)cc3)no2)cc1OC	3.1	16	6	2.9	1	7.5%
Cc1ccc(/C=N/NC(=O)c2ccc(OC3CCCC3)cc2)o1	-0.2	-14	17	-0.2	-5	0.9%
S=C(NCCCN1CCOCC1)Nc1ccc(N2CCOCC2)cc1	-3.5	-7	-20	0.6	-6	2.0%
Cc1cc(Cl)c(S(=O)(=O)NC2CCCCC2)cc1OCC(=O)Nc1nncs1	-4.9	-8	6	5.1	-14	0.2%
Nc1ncc(S(=O)(=O)NCc2ccc(F)cc2)cn1	.	.	-27	0.0	.	-0.5%
O=C(NCc1ccncc1)C1CCCN(S(=O)(=O)Cc2ccccc2)C1 (configuration not stated)	-2.0	-3	4	-0.5	6	-0.5%
CC(=O)N1c2ccc(S(=O)(=O)Nc3ccc(Cl)cc3C)cc2CC1C (configuration not stated)	.	.	-15	2.1	.	1.9%
Cc1ccc(N2C(=O)CC(Sc3ccccc3C(=O)O)C2=O)cc1C (configuration not stated)	-2.5	1	-9	1.3	-5	-0.2%
Cc1n[nH]c(C)c1CCOc1ccc(C(C)C)cc1	-1.9	0	65	1.6	4	3.5%
COc1ccc(-c2ccc(CN3C(CC(C)C)C(=O)N(Cc4cn(Cc5ccco5)nn4)CCS3(=O)=O)cc2)cc1OC (configuration not stated)	-2.9	-9	5	-0.2	-3	-0.3%
COc1ccc(NC(=S)N(C)CC2COc3ccccc3O2)cc1 (configuration not stated)	-8.2	4	6	-0.2	-5	0.7%
O=[N+]([O-])c1ccc(/C=N/n2c(C3CCCCC3)n[nH]c2=S)cc1	4.2	-1	-12	0.6	?	-1.1%
Cc1ccc(N(C(=O)c2csnn2)C(C(=O)NC(C)(C)C)c2cccs2)cc1 (configuration not stated)	-1.5	5	-7	0.3	-9	.
COc1ccc(CCn2c(NN=C3CCCCC3)nc3c2c(=O)[nH]c(=O)n3C)cc1	?	?	11	-0.4	4	4.5%
COc1ccc(Nc2nc(C)cc(C)c2C#N)c(OC)c1	3.9	8	11	-0.7	3	7.6%
CCOC(=O)c1nc(C)nc(Sc2n[nH]c(-c3cc(Cl)cc(Cl)c3)n2)c1C	-7.2	5	-4	2.0	2	?
CCSc1nc2ccccc2n1CCC(=O)O	-1.8	15	-5	-0.7	4	3.0%
NS(=O)(=O)c1cccc(NC(=O)Cc2ccc(Cl)c(Cl)c2)c1	-1.4	7	11	-1.2	-6	2.8%
Cc1c(Cl)cccc1NC(=O)CCC(=O)NNC(=O)c1ccccc1Cl	-2.0	0	3	-0.5	-15	6.8%[38.3 µM]
O/N=C(/c1ccc(F)cc1)C1CC1c1c(F)cccc1Cl (configuration not stated)	-4.3	4	-14	2.1	0	1.7%
CC(C)N(Cc1nc(-c2ccc(Cl)cc2)no1)C(=O)c1ccc(C(C)(C)C)cc1	.	.	-10	-0.3	.	4.1%
COc1ccc(NC(=O)C(C/C=C(/C)Cl)C(C)=O)cc1 (configuration not stated)	-0.8	14	-2	0.4	6	-0.8%
CCOC(=O)N1CCN(C(=O)CCc2c(C)nc3c(c(C)nn3-c3ccc(C)c(C)c3)c2C)CC1	-3.1	3	-4	-0.1	-6	6.0%[38.3 µM]
C=C(C)CSCc1nc2ccccc2[nH]1	-1.8	12	-13	0.6	5	1.3%
CC(O)CN=c1cc(-c2ccccc2)oc2ccc(Cl)cc12 (configuration not stated)	-5.1	-16	-3	-1.2	-14	-1.5%

Screening results as filed in PubChem BioAssay.
